Assay outcomes: PubChem, National Center for Advancing Translational Sciences (NCATS)
VACV mCherry inh: inhibitors of vaccinia virus infection (mCherry reporter signal); Vaccinia virus mCherry reporter infection, fluorescence; about a quarter of the inactives have no number; Potency, µM (doses to about 36.5 µM), inactives show top-dose activity change, negative = inhibition, usual class: inhibitors; 0.63% of 310,000 active; active = well fitted inhibition curve with a large enough effect; inconclusive = small, poorly fitted or top-dose-only effect; inactive = no such curve, though single readings can be large or run the other way; tested in A549 cells; further: nearly all actives have a fitted effect of over 35% in size; inactives centre near -10
VACV Venus inh: vaccinia inhibition (Venus reporter). Vaccinia virus Venus reporter expression, fluorescence. Potency, µM (highest dose often 36.5 µM), without a hit: at the top dose activity change, negative = inhibition, usual class: inhibitors. 0.46% of 330,000 active. AID 720580; active means well fitted inhibition curve with a large enough effect; inconclusive means small, poorly fitted or top-dose-only effect; inactive means no such curve, though single readings can be large or run the other way; tested in A549 cells; further: nearly all actives have a fitted effect of over 30% in size; inactives centre near -10
* marks the source's active call; other numbers are inactive results; i = inactive; ? = inconclusive; · = no result given; & = joins results of further samples; [ ] = dose if it differs, or a comment. On the % scale 0 is the no-effect control and ±100 the full control effect; potency means the concentration at half of the fitted maximal effect.

no.	SMILES	VACV mCherry inh	VACV Venus inh
1	CC(=O)c1cccc(NC(=S)N2CCN(S(=O)(=O)c3ccc(F)cc3)CC2)c1	-9%	-2%
2	Cc1ccc(OS(=O)(=O)c2ccccc2)c(/C=N/N=C2\NC(=O)C(C)S2)c1 (configuration not stated)	i	-11%
3	CSCCC(NS(=O)(=O)c1ccc(Cl)cc1)C(=O)OCC(=O)NC1CC1 (configuration not stated)	-8%	-5%
4	O=C1NC(=S)N(c2ccc(F)cc2)C(=O)/C1=C\c1ccoc1	3%	28%
5	C=CCc1cc(/C=C2/NC(=O)NC2=O)cc(OCC)c1O	?	0%
6	NC(=O)NCc1cccc(Cl)c1	i	-1%
7	COc1ccc(C(=O)Nc2cc(NC(=O)c3ccco3)ccc2OC)cc1Cl	-14%	-2%
8	Cc1cccc(-c2c3c(=O)n(C)c(=O)n(C)c3c3c(C)nc4ccccc4n23)c1	-3%	-29%
9	CCOC(=O)c1ccc(Nc2ncnc3c2cnn3C)cc1	-10%	-4%
10	CCC(CC)N1CCN(CC2CC=CCC2)CC1 (configuration not stated)	-15%	0%
11	CCCC(C(=O)OCCN(CC)CC)(c1ccccc1)c1ccccc1	-8%&-25%	-23%&-16%
12	NC(=O)/C(=C/c1cccnc1)NC(=O)c1ccccc1	-16%	-5%
13	Cc1cc(C)n(-c2nc3ccccc3nc2NCCc2ccccc2)n1	?	-6%
14	COc1cccc(/C=N/Nc2ncnc3c2ncn3Cc2ccccc2)c1O	3.2µM*	?
15	O=C(CSc1nc2sc3c(c2c(=O)n1-c1ccccc1)CCCC3)NCc1ccco1	?	?
16	COCC(=O)N(Cc1nc2sc(C)c(C)c2c(=O)[nH]1)C1CCCCC1	-13%	-16%
17	Cc1cccc(C)c1-n1nnnc1C(c1ccnc2ccccc12)N1CCOCC1 (configuration not stated)	-7%	-3%
18	COc1ccc(C)cc1NC(=O)COC(=O)C1CC1	-25%	-26%
19	O=C(CCn1c(=O)oc2ccccc21)N1CCN(c2ccc(F)cc2)CC1	?	-5%
20	CC(=NNS(=O)(=O)c1ccc(C)cc1)c1ccncc1	i	-6%
21	O=C(NCCO)c1ccc(Cl)c(Cl)c1	-13%	-3%
22	CCCn1c(=O)[nH]c(=O)c2c1nc(-c1ccc(C(F)(F)F)cc1)n2CCOC	2%	-4%
23	O=C(Nc1cccc(F)c1)C1CCCCC1	-11%	-8%
24	CC1CCN(c2nc3ccc(C(=O)O)cc3s2)CC1	i	-4%
25	Cc1cc(C(=O)Nc2cccc(NC(=O)c3ccco3)c2)ccc1[N+](=O)[O-]	i	-9%
26	CC(C)[C@H](NC(=O)c1c(F)cccc1F)C(=O)N1CCN(c2ccc(F)cc2)CC1	-18%	-19%
27	Cc1onc(-c2ccccc2Cl)c1C(=O)NCc1ccc(S(N)(=O)=O)cc1	-11%	-2%
28	c1ccc(OCCSc2ncnc3nc[nH]c23)cc1	-4%	-4%
29	Cc1cc(C)nc(-n2nc(C)cc2NC(=O)CN2CCCC(C)C2)n1 (configuration not stated)	-5%	-22%
30	COc1cc(C(=O)O)cc(OC)c1OCc1cc(C(=O)O)oc1C	·	-8%
31	CCOC(=O)c1cccc(NC(=O)c2cncc(Br)c2)c1	-10%	-14%
32	COc1cc2c(cc1OC)C(C(=O)NCCC(C)C)C1CCCCN1C2=O (configuration not stated)	-5%	-7%
33	CCOc1cccc(/C=C2\NC(=S)N(c3ccccc3)C2=O)c1O	i	80%[activator]
34	CCCCc1c(C)nc2ccc(C)cc2c1SCCC(=O)O	1%	-17%
35	Cc1cccc(C(=O)Nc2cccc(C(=O)OCc3cc(=O)n4nc(C5CC5)sc4n3)c2)c1	-27%	-25%
36	COC(=O)[C@H](Cc1ccccc1)NC(=O)/C=C/[C@H]1O[C@@H](n2ccc(=O)[nH]c2=O)[C@H](O)[C@@H]1O	10%	0%
37	O=C(COC(=O)c1ccccc1NC(=O)c1ccco1)Nc1ccc2c(c1)OCO2	·	-1%
38	CC1Oc2ccccc2N(Cc2cccnc2)C1=O (configuration not stated)	-8%	-1%
39	O=C(NCC1CC1)c1onc(CSc2ccc(F)c(F)c2)c1C(=O)NCC1CC1	i	2%
40	O=Cc1ccc(-c2cccs2)s1	-26%	?
41	O=C(Cn1c(=O)oc2ccccc21)Nc1ccccc1Cl	-13%	5%
42	Cc1nc2c(c3c1[nH]c1ccccc13)C(O)CC(C)(C)C2 (configuration not stated)	?	-25%
43	CCOC(=O)C1CCCN(Cc2cn3c(-c4cccc(Br)c4)nnc3s2)C1 (configuration not stated)	-2%	-8%
44	CCOC(=O)c1cc2c(=O)n3ccccc3nc2n(CC(C)C)c1=NC(=O)c1cc2ccccc2o1	-3%	-7%
45	O=c1cc(N2CCCCC2)c2ccccc2o1	7%	-10%
46	C/C(=N\Nc1cccc(C(=O)O)c1)c1ccc(Cl)s1	?	0%
47	COC(=O)c1cc(S(=O)(=O)NCc2ccc3c(c2)OCO3)c[nH]1	i	-3%
48	COc1ccc(C2=C(Nc3ccc(Br)c(C)c3)c3ccccc3C2=O)cc1	-14%	-7%
49	CC(=O)Nc1ccc(C(=O)Nc2cccc(S(=O)(=O)NC3=NCCC3)c2)cc1	-12%	-5%
50	Cc1ccc(S(=O)(=O)N2CCC(C(=O)Nc3ccc(N4CCOCC4)cc3)CC2)cc1C	i	-9%

Next section
no.	SMILES	VACV mCherry inh	VACV Venus inh
51	CCOC(=O)C1CCCN(CCC(=O)Nc2ccc(OC)cc2OC)C1 (configuration not stated)	-3%	-10%
52	COC(=O)C1=C(c2cccc(C#N)c2)C[C@@H]2CC[C@H]1N2C(=O)NC1CC1	i	-10%
53	c1ccc(-n2ncc3c(NCc4ccc5c(c4)OCO5)ncnc32)cc1	-5%	-7%
54	CCc1ccc(NCc2cc3ccc(OC)cc3n(CC(=O)Nc3ccccc3C)c2=O)cc1	-10%	-8%
55	COc1ccc(-c2cc(-c3ccccc3)nc(SCC(=O)Nc3ccccc3C)c2C#N)cc1	-26%	-13%
56	CN(Cc1ccccc1)S(=O)(=O)c1ccc(OCC(=O)NCc2cccnc2)cc1	i	-16%
57	CCn1nc(C)c(CCN(C)C(=O)Nc2ccc(C)c(Cl)c2)c1C	-10%	-2%
58	Cc1ccc(/C=N/NC(=O)c2cc3ccccc3cc2O)o1	?	-7%
59	CCC(=O)c1ccc(N2CCCCCC2)c(F)c1	·	-23%
60	COc1ccccc1N1CCN(Cc2ccc(C(=O)O)cc2)CC1	-7%	-5%
61	Cc1nn(C)c(C)c1S(=O)(=O)N(CC(=O)Nc1ccccn1)c1ccc(C(C)C)cc1	i	-7%
62	CC1=C(C(N)=O)C(c2cccc(F)c2)n2nc(SCc3ccccc3)nc2N1 (configuration not stated)	-7%	-16%
63	O=C(CSc1nc2nn(-c3ccccc3)c(=O)c-2c2n1CCCCC2)Nc1ccc(F)c(F)c1	i	-6%
64	CCCN(CCC)C(=S)NC(=O)c1ccc(Cl)cc1Cl	-25%	-19%
65	Cn1cc([N+](=O)[O-])c(C(=O)Nc2cc(Oc3cccnc3)cc([N+](=O)[O-])c2)n1	i	-14%
66	CCOc1ccc(CN2CCN(S(=O)(=O)c3ccc(NC(C)=O)cc3)CC2)cc1	-11%	-16%
67	Cc1noc(-c2ccccc2OC(=O)c2ccccc2)n1	·	-14%
68	CSc1ccc(CN2C(=O)C(F)(F)Oc3c(C(C)=O)cccc32)cc1	-8%	?
69	Fc1ccc(Sc2nc(-c3ccccc3)nnc2C(F)(F)F)cc1	-15%	-4%
70	CCN(CC)S(=O)(=O)c1ccc(N/N=C(\C)c2ccncc2)c([N+](=O)[O-])c1	-25%	0%

Among those listed so far, two have a CF3 group.
no.	SMILES	VACV mCherry inh	VACV Venus inh
22	CCCn1c(=O)[nH]c(=O)c2c1nc(-c1ccc(C(F)(F)F)cc1)n2CCOC	2%	-4%
69	Fc1ccc(Sc2nc(-c3ccccc3)nnc2C(F)(F)F)cc1	-15%	-4%

(more compounds)
no.	SMILES	VACV mCherry inh	VACV Venus inh
71	O=C(NCc1cccnc1)c1cnn2ccccc12	-12%	-3%
72	COc1ccc(/C=C(/NC(=O)c2ccccc2)C(=O)N/N=C/c2cccs2)cc1OC	-6%	-8%
73	COc1nc(Cl)cn(-c2ccc(Cl)cc2)c1=O	i	-6%
74	CN(C)c1nc(N(C)C)c2cnn(C)c2n1	i	-12%
75	COc1ccc(NC2=C(c3ccccc3)C(=O)c3ccccc32)cc1Cl	-15%	-7%
76	CCN(CC)c1ccc(NC(=O)c2ccc(=O)[nH]c2)cc1S(=O)(=O)Nc1ccccc1OC	i	-25%
77	COc1ccc(Cn2ccnc2SCC(=O)Nc2ccc3c(c2)OCO3)cc1	i	-11%
78	O=C(CN1CCC(NC(=O)c2ccccc2Cl)CC1)NCc1ccccc1	i	0%
79	COc1ccc(N(CC(=O)N2CCN(C)CC2)S(=O)(=O)c2ccccc2)cc1	-8%	-4%
80	COc1ccc(Nc2nnc(SCc3cn4c(C)cccc4n3)s2)cc1	-21%	-27%
81	CC(C)CCNC(=O)C(=O)Nc1cc2c3c(c1)CCC(=O)N3CCC2	-12%	-1%
82	O=CN1CCN(C(=O)c2ccccc2F)CC1	-7%[1.46 µM]	?
83	O=C(Nc1ccn(CCCNCCN2CCOCC2)c(=O)n1)OCc1ccccc1	i	-15%
84	Cc1ccccc1Nc1nc(N)[nH]c(=O)c1N=O	16%	-1%
85	CCc1ccccc1NS(=O)(=O)c1ccc2c(c1)CCCN2C(=O)C1CCC1	-8%	-13%
86	CCc1nc2n[nH]c(N)c2c2c1CCCC2	·	-25%
87	CCOc1ccc(N(CC(=O)NCc2ccc(Cl)cc2)S(=O)(=O)c2ccccc2)cc1	-7%	-8%
88	COc1ccc(C2CC(c3ccc(Cl)cc3)Nc3nc(NC(=O)c4ccco4)nn32)cc1 (configuration not stated)	·	-18%
89	CC1(C)CC=CC(COC(=O)c2ccccc2C(=O)O)C1 (configuration not stated)	i	-13%
90	Cc1ccc(C(=O)CC(=O)COc2ccc(Cl)cc2C)cc1	i	-8%
91	COc1cccc(NC(=O)CN(C)C(=O)c2cccc(S(=O)(=O)N3CCN(c4ccc(F)cc4)CC3)c2)c1	-20%	?
92	COC(=O)C(C(=O)OC)C(c1ccccc1)C(C(=O)c1ccccc1)[N+](=O)[O-] (configuration not stated)	i	12%
93	O=C(NCc1ccc(F)cc1)C(=O)Nc1ccc2nc3n(c(=O)c2c1)CCCCC3	2%	1%
94	COc1ccc(-c2nc(NC(=O)C3=NN(c4cccc(C)c4)C(=O)CC3)sc2C)cc1	-1%	-4%
95	CN(Cc1ccc(F)cc1)C(=O)c1ccc(NS(=O)(=O)c2ccc3[nH]c(=O)[nH]c3c2)cc1	-13%	-6%
96	C=CCN1CCC(=O)C(C(=O)OCC)=C1C(=O)OCC	-15%	-1%
97	Cc1ccc(C2=NNC(C(O)C(O)C(O)CO)S2)cc1 (configuration not stated)	-17%	-7%
98	O=C(CCC1CCCN(C(=O)c2ccco2)C1)NCc1ccccc1F (configuration not stated)	i	-12%
99	O=C(c1ccccc1)c1ccc2nc(N3CCN(c4ccc(F)cc4)CC3)c3nncn3c2c1	?	?
100	Cc1ccc(OCCN2C(=O)S/C(=C\c3ccc(C)o3)C2=O)cc1	-9%	4%
101	Cc1cccn2c(=O)cc(COc3ccc(NC(=O)COc4ccc(F)cc4)cc3)nc12	-19%	-17%
102	CC1(c2ccc(Cl)cc2)NC(=S)N2C1NC(=S)N2c1ccccc1 (configuration not stated)	?	-1%
103	CC1(C)Cc2c(C#N)c(N3CCOCC3)nc(-c3ccccc3)c2CO1	·	-18%
104	CCOC(=O)C1CCN(C(=O)c2ccc3c(=O)n4nc(Nc5ccccc5)sc4nc3c2)CC1	-12%&-12%	-13%&-14%
105	Cc1cccc(C)c1NC(=O)c1cc(S(=O)(=O)N2CCC3(CC2)OCCO3)ccc1F	0%	-11%
106	COc1cccc(NC(=O)Cn2c(=O)n(CCc3cccc(C)c3)c(=O)c3ccccc32)c1	-7%	-6%
107	O=C(CN1CCN(c2ccccn2)CC1)N(c1ccccc1)c1ccc2ccccc2c1	?	?
108	Cc1ccc(CNc2oc(-c3ccc(COc4ccc(C)cc4)o3)nc2C#N)cc1	-11%	-8%
109	O=C(CSc1ccc2nnc(-c3ccc(F)cc3)n2n1)N1CCCc2ccccc21	?	-20%
110	CCN1CCN(c2ccc(S(=O)(=O)N3CCOCC3)cc2NC(=O)c2ccc(C(F)(F)F)cc2)CC1	-9%	-11%
111	O=C1CCC(c2ccc3c(c2)CCC3)=NN1	i	-10%
112	CC(=O)Nc1ccc(NC(=O)c2cccc(S(=O)(=O)N3CCCCCC3)c2)cc1	-10%	-27%
113	O=c1oc(-c2ccc(F)cc2)nc2ccsc12	i	-8%
114	COC(=O)C[C@H]1c2cc(F)ccc2S(=O)(=O)N1Cc1ccccc1OC	-15%	-4%&-8%
115	CCOc1ccc(Oc2ccccc2NC(=O)CSCC(=O)Nc2cc(C)on2)cc1	-7%	-28%
116	COc1ccccc1CC(=O)Nc1ccc2nc(Nc3cccc(C(F)(F)F)c3)cc(C)c2c1	?	?
117	CN(C)c1ccc(C(=O)Nc2ccc(S(=O)(=O)Nc3nccs3)cc2)cc1	-12%	-5%
